# Biofilm kill mix – mixtures killing C. albicans biofilm; C. albicans biofilm persisters + clotrimazole, fluorescence viability; primary screen in compound mixtures of four per well; inhibition, % at 7.6 µM; hit rate 0.02% among 120,000; AID 1242;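 active = inhibition above 30.3% in the primary screen of four-compound pools, then above 30% when the compound was retested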;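 note: compounds exposed to preformed 24 h biofilms for 48 h; the number belongs to the whole pool; some results filed as inactive read as strong as hits; inactives centre near 12; 0% = biofilm with clotrimazole alone and 100% = kill control; retested singly at about 60 µM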
#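 Test system: C. albicans CAF4-2 wild-type biofilms; buffer or medium: RPMI/MOPS medium, pH 7.0; schedule: 24 h biofilm formation, then 48 h compound exposure, 37 °C; detection: Alamar Blue fluorescence; measure: percent inhibition of biofilm viability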
# An asterisk follows results filed as active. Only part of the results is shown, so the mix of outcomes need not match the whole.
> O=[N+]([O-])c1ccc(/C([O-])=C(/C(=S)NCc2ccco2)[n+]2ccccc2)cc1
- Biofilm kill mix = 1
> COC(=O)c1ccc(CSc2nnc(N)s2)cc1
- Biofilm kill mix = -4
> Cc1cccc(NC(=S)N(CCN2CCOCC2)Cc2ccccc2F)c1
- Biofilm kill mix = 15
> CCc1nnc(NC(=O)CCC(=O)N2CCN(CCc3ccccc3)CC2)s1
- Biofilm kill mix = -9
> O=C(CSc1nc(-c2ccco2)cc(C(F)(F)F)n1)NCCN1CCOCC1
- Biofilm kill mix = 22
> CCN(CC)CCN(C(=O)c1ccccc1OC)c1nc2ccc(F)cc2s1
- Biofilm kill mix = 20
> COc1ccc(/C=N/NC(N)=S)cc1
- Biofilm kill mix = 27
> CCOC(=O)c1c(/N=C/N(C)C)sc(/C=N/Nc2ccccc2)c1-c1ccc(Cl)cc1
- Biofilm kill mix = -3
> NCCCCCC(=O)N/N=C/c1coc2ccccc2c1=O
- Biofilm kill mix = 28
> CCn1c(C)[n+](CC)c2ccc(S(=O)(=O)N(C)C)cc21
- Biofilm kill mix = 6
> CC1c2ccccc2SC(CCCN(C)C)c2ccccc21 (centres undefined)
- Biofilm kill mix = 9
> N#CCCN1CCN(S(=O)(=O)c2cc(Cl)ccc2Cl)CC1
- Biofilm kill mix = -11
> CC(c1ccon1)N(C)C(=O)CCc1nnc(CCCCc2ccccc2)o1 (centres undefined)
- Biofilm kill mix = 2
> CCOC(=O)CSc1nc(-c2ccccc2)cc(C(F)(F)F)n1
- Biofilm kill mix = 2
> COc1cc2c(cc1NC(=O)Nc1ccc(F)cc1)oc1ccccc12
- Biofilm kill mix = 11
> O=C(Cc1sc(Nc2ccccc2)nc1-c1ccccc1)NCc1ccccn1
- Biofilm kill mix = -4
> O=C(CSc1nc2ccccc2s1)N/N=C/c1cc([N+](=O)[O-])ccc1O
- Biofilm kill mix = 15
> CN(C)S(=O)(=O)c1cccc(NC(=O)COC(=O)c2cc(=O)[nH]c(=O)[nH]2)c1
- Biofilm kill mix = 26
> COc1cc([N+](=O)[O-])ccc1NC(=S)NC(=O)CC(C)(C)C
- Biofilm kill mix = -11
> Cc1cccc(-c2nsc(SCC(=O)NCc3ccc4c(c3)OCO4)n2)c1
- Biofilm kill mix = -8
> Cn1c(N)c(C(=O)COC(=O)c2cc(C(F)(F)F)nc3ccccc23)c(=O)n(Cc2ccccc2)c1=O
- Biofilm kill mix = 20
> CC(=O)Nc1ccc(S(=O)(=O)N(C)CC(=O)OCC(=O)Nc2cccnc2Cl)cc1
- Biofilm kill mix = 13
> CC(=O)/C(=N\Nc1ccccc1)Oc1ccc([N+](=O)[O-])cc1
- Biofilm kill mix = 7
> CC(=O)Nc1ccc(NC(=O)C2CC(=O)N(c3ccccc3Cl)C2)cc1 (centres undefined)
- Biofilm kill mix = 20
> Cc1ccc(NC(=O)N2CCc3ccccc32)cc1
- Biofilm kill mix = 4

> CN(C)CCNC(=O)C(=O)NCC1OCCCN1S(=O)(=O)c1cccs1 (centres undefined)
- Biofilm kill mix = 13
> CC(=O)Nc1ccc(SCC(=O)Nc2sccc2C#N)cc1
- Biofilm kill mix = 5
> Cc1ccc(CNC(=O)c2ccc(S(=O)(=O)Nc3c(C)n(C)n(-c4ccccc4)c3=O)cc2)cc1
- Biofilm kill mix = 17
> COC(=O)C(NS(=O)(=O)c1ccccc1Br)C(C)C (centres undefined)
- Biofilm kill mix = 20
> Cn1c(-c2ccc3c(c2)OCO3)c(C(=O)O)c(=O)c2ccccc21
- Biofilm kill mix = 6
> COc1cc(OC)cc(C(=O)NC(=S)Nc2cc3oc4ccccc4c3cc2OC)c1
- Biofilm kill mix = 0
> Cc1cc(=O)n(C)c(=O)n1CCCCOc1cccc([N+](=O)[O-])c1
- Biofilm kill mix = 6
> Cc1ccc(C2=NN(C(=O)CSc3nc4ncc(Cl)cc4[nH]3)C(c3ccco3)C2)cc1 (centres undefined)
- Biofilm kill mix = 6
> COC(=O)CCC(=O)Nc1c(C)n(C)n(-c2ccccc2)c1=O
- Biofilm kill mix = 11
> COc1cccc(COC(=O)c2nn(-c3ccccc3)nc2N)c1
- Biofilm kill mix = 10
> Cc1cc(C)c(C)c(S(=O)(=O)NCCCN2CCOCC2)c1C
- Biofilm kill mix = 4
> Cc1ccc(-c2nnn(CC(=O)N(Cc3ccc(F)cc3)C(C(=O)NC3CCCC3)c3ccncc3)n2)o1 (centres undefined)
- Biofilm kill mix = 7
> c1ccc(OCc2nc(-c3ccncc3)no2)cc1
- Biofilm kill mix = 24
> COC(=O)c1cc(OC)c(OC)cc1NCC(=O)Nc1ccc(OC)c(OC)c1
- Biofilm kill mix = -6
> O=c1c2sccc2nc(SCc2cc(=O)n3cc(Cl)ccc3n2)n1-c1ccc(F)cc1
- Biofilm kill mix = 22
> CSCCC(NC(N)=O)C(=O)Nc1cccc(C#N)c1 (centres undefined)
- Biofilm kill mix = -5
> CCc1ccc(OCc2n[nH]c(=S)n2Cc2ccccc2)cc1
- Biofilm kill mix = 20
> COc1ccc(-c2[nH]ncc2CN2CCCOc3c(cccc3OC)C2)c(OC)c1
- Biofilm kill mix = 7
> Cc1nc2sc(C(c3ccc(F)cc3)N3CCN(C(=O)c4ccco4)CC3)c(O)n2n1 (centres undefined)
- Biofilm kill mix = 9
> O=C(NCCNC(=O)c1ccccc1)c1ccccc1
- Biofilm kill mix = 12
> COc1ccc2cc(C#N)c(Nc3cccc(F)c3)nc2c1
- Biofilm kill mix = 11
> CN(C(=O)COC(=O)CNC(=O)c1ccccc1Cl)c1ccccc1
- Biofilm kill mix = 18
> CCC(C)(C)NC(=O)/C=C/c1cnc2ccccc2n1
- Biofilm kill mix = 1
> CCOc1ccccc1C1CC(c2cccs2)=NN1S(C)(=O)=O (centres undefined)
- Biofilm kill mix = 2
> Cc1ccccc1OCC(=O)N/N=C/c1c(C)nn(-c2ccccc2)c1Cl
- Biofilm kill mix = 7

# Three compounds already listed, arranged by molar mass, smallest number first.
> COC(=O)CCC(=O)Nc1c(C)n(C)n(-c2ccccc2)c1=O
- Biofilm kill mix = 11
> CN(C(=O)COC(=O)CNC(=O)c1ccccc1Cl)c1ccccc1
- Biofilm kill mix = 18
> COc1cc(OC)cc(C(=O)NC(=S)Nc2cc3oc4ccccc4c3cc2OC)c1
- Biofilm kill mix = 0

# (cont.)
> COc1cc2sc(C)nc2cc1C
- Biofilm kill mix = 6
> O=c1[nH]c(SCc2ccccc2)nc2c1sc1ccccc12
- Biofilm kill mix = 14
> Cc1[nH]nc2c1C(c1ccsc1)C1=C(CC(C)(C)CC1=O)N2 (centres undefined)
- Biofilm kill mix = 9
> CC[C@@H](Nc1ncnc2c1oc1ccccc12)C(=O)O
- Biofilm kill mix = 16
> Cc1cc(C)n(-c2ccc(C(=O)N3CC(C)OC(C)C3)cc2)n1 (centres undefined)
- Biofilm kill mix = 18
> COc1cc(/C=N/NC(=O)c2ccc(CN3c4cccc5cccc(c45)S3(=O)=O)cc2)cc(OC)c1O
- Biofilm kill mix = 28
> O=c1cnnc(Nc2ccc(F)cc2)[nH]1
- Biofilm kill mix = 19
> O=[N+]([O-])c1ccc(F)cc1Oc1nc(-c2cccnc2)nc2ccccc12
- Biofilm kill mix = 12
> O=C(CN1C(=O)c2cccnc2C1=O)c1ccccc1
- Biofilm kill mix = 16
> CCC(C)NC(=O)c1c(-c2cc(Cl)c(OC)c(Cl)c2)noc1C (centres undefined)
- Biofilm kill mix = 13
> CC(C)Cc1cc(CN2CCC(CO)(Cc3cccc(C(F)(F)F)c3)CC2)[nH]n1
- Biofilm kill mix = 18
> O=C(Nc1ccn(Cc2ccccc2)n1)c1ccc(F)cc1
- Biofilm kill mix = 20
> Cc1c(Br)c([N+](=O)[O-])nn1C(C)C(=O)NCc1ccco1 (centres undefined)
- Biofilm kill mix = 24
> COc1ccccc1NC(=O)Cn1nnc2sc3c(c2c1=O)CC(C)(C)OC3
- Biofilm kill mix = 23
> COc1ccc(CCNC(=O)CSc2nnnn2-c2ccc(OC)c(OC)c2)cc1OC
- Biofilm kill mix = 16
> Cc1ccc2nc(SCC(=O)Nc3cccc(S(N)(=O)=O)c3)[nH]c2c1
- Biofilm kill mix = 13
> Cc1cc(C(=O)CN2C(=O)C(=O)N(C)C2=O)c(C)n1-c1cccc(S(=O)(=O)N2CCOCC2)c1
- Biofilm kill mix = 13
> CN(CC(O)COC(c1ccccc1)c1ccccc1)C1CCCCC1 (centres undefined)
- Biofilm kill mix = 7
> CC(C)(C)C1CCc2onc(C(=O)O)c2C1 (centres undefined)
- Biofilm kill mix = 5
> COc1ccc(/C=C/C(=O)Nc2ccc(C34CC5CC(CC(O)(C5)C3)C4)cc2)cc1OC
- Biofilm kill mix = 9
> CCN(CC)C(=S)Nc1c(C)n(C)n(-c2ccccc2)c1=O
- Biofilm kill mix = 11
> CCOc1ccc(C(=O)NCC(=O)OCC(=O)N2CCCC2)cc1
- Biofilm kill mix = 18
> NNc1nc2c(-c3ccc(Cl)cc3)nnn2c2ccccc12
- Biofilm kill mix = 11
> CSc1n[nH]c(-c2ccc(C(F)(F)F)cc2)n1
- Biofilm kill mix = 22
> COC(=O)CNC(=O)COC(=O)Cc1ccc(Cl)cc1
- Biofilm kill mix = 9

# The list goes on, overlapping the part above by seven compounds.
compound	Biofilm kill mix
CC(C)(C)C1CCc2onc(C(=O)O)c2C1 (centres undefined)	5
COc1ccc(/C=C/C(=O)Nc2ccc(C34CC5CC(CC(O)(C5)C3)C4)cc2)cc1OC	9
CCN(CC)C(=S)Nc1c(C)n(C)n(-c2ccccc2)c1=O	11
CCOc1ccc(C(=O)NCC(=O)OCC(=O)N2CCCC2)cc1	18
NNc1nc2c(-c3ccc(Cl)cc3)nnn2c2ccccc12	11
CSc1n[nH]c(-c2ccc(C(F)(F)F)cc2)n1	22
COC(=O)CNC(=O)COC(=O)Cc1ccc(Cl)cc1	9
O=C(COC(=O)c1cccc(Br)c1)NCCc1ccc(F)cc1	-14
O=C(/C=C/c1ccc(S(=O)(=O)N2CCOCC2)cc1)N1CCN(c2ccccc2)CC1	-2
O=C(O)[C@H](Cc1ccccc1)NC(=O)C(c1ccccc1)(c1ccccc1)c1ccccc1	21
CC(=O)C1=C(c2ccccc2)N(C(C)=O)n2c(C)nnc2S1	24
OC(CNC1Cc2ccccc2C1)COc1ccc(Cl)cc1 (centres undefined)	21
O=C1NC(=Nc2ccc(Cl)cc2)SC1Cc1cccc(Cl)c1Cl (centres undefined)	12
C/C(=N\Nc1cc(C)nc(-c2ccccc2)n1)c1cccc([N+](=O)[O-])c1	26
Cc1nc(SCC(=O)c2ccccc2)[nH]c(=O)c1Oc1ccc(Cl)cc1	28

# Other records:
compound	Biofilm kill mix
COc1ccc(OCc2n[nH]c(=S)n2Cc2ccco2)cc1	11
COc1ccc(-c2cc(C(=O)c3c(N)n(C)c(=O)n(C)c3=O)c3ccccc3n2)cc1	25
CCC(=O)NNc1ncnc2c1cnn2-c1ccccc1	9
CC(=O)NC1C(=O)N(Cc2ccccc2)c2ccc(Br)cc21 (centres undefined)	18
CCOC(=O)C1CCN(c2nc3ccccc3n2CC(=O)c2ccccc2)CC1	18
COc1cccc(N/C(N)=N/c2nc(CSc3ccccn3)cc(=O)[nH]2)c1	14
Cc1nc([N+](=O)[O-])c(C(=O)OCc2ccc(C#N)cc2)n1C	5
O=S(=O)(CCN1C=CC(C(F)(F)F)=NCC1)c1ccc(Cl)cc1Cl	13

# Next section.
compound	Biofilm kill mix
COC(=O)c1c(SCc2ccc(C#N)cc2)nc(=O)[nH]c1C	12
C=CCc1cccc(C=Nc2cc(Br)ccc2O)c1O	7
CC(C)OCCCNC(=S)Nc1ccc2nc3n(c(=O)c2c1)CCCCC3	16
CCN(CC)S(=O)(=O)c1ccc2c(c1)c(=O)c(C(=O)NCc1ccco1)cn2C	9
CC(OC(=O)c1cn(-c2ccccc2)nc1-c1cccnc1)C(N)=O (centres undefined)	9
Cc1onc(C(=O)NCc2ccc(F)cc2)c1[N+](=O)[O-]	18
Nc1nnc(-c2ccccc2F)s1	20
N#C/C(=C\c1ccc2c(c1)OCO2)C(N)=S	9

# The list goes on; it opens with the 7 that closed the last part.
compound	Biofilm kill mix
C=CCc1cccc(C=Nc2cc(Br)ccc2O)c1O	7
CC(C)OCCCNC(=S)Nc1ccc2nc3n(c(=O)c2c1)CCCCC3	16
CCN(CC)S(=O)(=O)c1ccc2c(c1)c(=O)c(C(=O)NCc1ccco1)cn2C	9
CC(OC(=O)c1cn(-c2ccccc2)nc1-c1cccnc1)C(N)=O (centres undefined)	9
Cc1onc(C(=O)NCc2ccc(F)cc2)c1[N+](=O)[O-]	18
Nc1nnc(-c2ccccc2F)s1	20
N#C/C(=C\c1ccc2c(c1)OCO2)C(N)=S	9
COc1cc(OC)c(C(=O)OCC(=O)N(Cc2ccccc2)C(C)(C)C)cc1OC	15
O=C(NCc1ccccc1)c1ccc(N2C(=O)C3CCCCC3C2=O)cc1 (centres undefined)	7
COc1ccc(-c2nnn(CC(=O)N3CCN(c4ccccc4OC)CC3)n2)cc1	13
Cc1ccc(-c2cc(N)n(-c3ccc(F)cc3)n2)cc1	-27
Cc1cc(C)n(-c2ccc(F)cc2)c(=O)c1C#N	26

# Bioassay records: PubChem BioAssay, PCMD
